# Screening data: PubChem BioAssay, National Center for Advancing Translational Sciences (NCATS)
# D2 potentiator: positive allosteric modulators of human D2 dopamine receptor. P14416. DiscoveRx D2 beta-arrestin cells, luminescence, 90 min; 100% = 57 uM dopamine signal. potentiation, % (test concentration not listed). hit rate 0.23% among 360,000. AID 624464; active = potentiation of 50% or more; inconclusive = 30% to 50%; inactive = 30% or less;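 note: compound concentration not given in the record; tested on top of an EC20 dose of dopamine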
#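 PathHunter D2 cells, attached overnight at 37 deg C, received compound in DMSO plus dopamine at EC20 (50 nM final) for 90 min at 37 deg C. Beta-arrestin recruitment was read as luminescence after 1 h with detection reagent at ambient temperature.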
# Six1-Eya2 blk: blocks human Six1 binding to Eya2. activity change, % (test concentration not listed). AlphaScreen GST-Six1/His-Eya2 binding, biochemical; active compounds read low; control for the full effect not named in the record. hit rate 0.56% among 360,000. AID 651725; in the data active = activity change below about -65%; inconclusive = about -30% to -65%; inactive = above about -30%; note: % is set by controls: 0 for no effect and ±100 for the full control effect
# Target sequence (O00167 whole entry, looked up): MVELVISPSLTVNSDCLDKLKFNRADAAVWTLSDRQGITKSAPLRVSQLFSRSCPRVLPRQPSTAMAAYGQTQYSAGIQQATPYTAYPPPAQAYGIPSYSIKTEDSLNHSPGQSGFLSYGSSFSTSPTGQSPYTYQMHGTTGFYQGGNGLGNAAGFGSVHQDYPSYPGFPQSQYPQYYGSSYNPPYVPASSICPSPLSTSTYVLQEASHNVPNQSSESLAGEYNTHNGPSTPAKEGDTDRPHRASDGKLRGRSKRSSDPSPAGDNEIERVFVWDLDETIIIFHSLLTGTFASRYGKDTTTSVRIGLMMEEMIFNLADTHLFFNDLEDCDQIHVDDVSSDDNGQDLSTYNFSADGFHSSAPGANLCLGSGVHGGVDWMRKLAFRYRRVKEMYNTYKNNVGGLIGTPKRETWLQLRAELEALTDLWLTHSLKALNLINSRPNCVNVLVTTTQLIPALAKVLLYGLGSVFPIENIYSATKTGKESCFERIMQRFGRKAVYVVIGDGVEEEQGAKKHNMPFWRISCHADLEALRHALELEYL
# Target sequence (Q15475 whole entry, looked up): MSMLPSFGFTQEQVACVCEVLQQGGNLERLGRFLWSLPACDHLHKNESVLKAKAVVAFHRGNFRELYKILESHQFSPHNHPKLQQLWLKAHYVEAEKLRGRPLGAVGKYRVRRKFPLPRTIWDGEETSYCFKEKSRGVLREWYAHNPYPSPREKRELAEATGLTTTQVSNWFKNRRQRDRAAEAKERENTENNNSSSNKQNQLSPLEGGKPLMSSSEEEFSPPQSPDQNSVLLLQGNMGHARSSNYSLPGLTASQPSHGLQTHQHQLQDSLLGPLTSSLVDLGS
#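 AlphaScreen luminescence read after one hour at 37 °C in darkness. Pin-transferred compounds met GST-Six1 and His-Eya2 protein (5X stock 250 nM/500 nM) plus glutathione donor and Ni-chelate acceptor beads (5X, 50 ug/mL).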
# D2 ag: activates the human D2 dopamine receptor. DiscoveRx PathHunter D2 beta-arrestin, luminescence, 90 min; 100% = 57 uM dopamine signal. hit rate 0.084% among 360,000. P14416. AID 624465. activation, % (no concentration beside the values); in the data active = activation above about 40%; inconclusive = about 15% to 40%; inactive = below about 15%; note: compound concentration not given in the record; the text of the record calls up to 30% inactive
#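 DiscoveRx PathHunter D2 beta-arrestin cells (2,100/well) attached overnight, then compound-stimulated 90 min at 37 C in HBSS/10 mM HEPES/0.1% Tween-20 buffer; beta-galactosidase complementation read by luminescence after 1 h at ambient temperature. Dopamine 57 uM final (EC100) as control.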
# gsp antagonist: antagonists of gsp mutant (McCune-Albright syndrome); AID 624288; gsp-mutant cells, cAMP HTRF, 30 min; control for the full effect not named in the record; Potency, µM (titrated, usually from 76.9 µM), without a hit: top-dose activity change, negative = inhibition, hits mostly inhibitors; hit rate 0.4% among 340,000; active = falling curve of any shape with a large fitted effect; inconclusive = falling curve, mostly with a smaller effect; inactive = flat or rising curve; cell line not stated here;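 note: intracellular cAMP measured with PDE inhibitor Ro 20-1724 present during compound exposure; potency is the fitted concentration of half-maximal effect; % is set by controls: 0 for no effect and ±100 for the full control effect; nearly all actives have a fitted effect of over 65% in size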
#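 G418-selected cells were plated in DMEM/10% FBS for 16-24 h at 37C, then treated with compounds plus the PDE inhibitor […] (300 uM solution added) for 30 min at 37C. Intracellular cAMP was measured by HTRF after 30 min lysis at room temperature.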
# CtBP-E1A inh: CtBP/E1A binding inhibition | AlphaScreen GST-E1A/His-CtBP binding, 1536-well; active compounds read low; control for the full effect not named in the record | activity change, % (no concentration beside the values) | hit rate 0.49% among 340,000; in the data active means activity change below about -65%; inconclusive means about -30% to -65%; inactive means above about -30%; note: % is set by controls: 0 for no effect and ±100 for the full control effect
#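 Steps: dispense buffer (Tris pH 8.0, NaCl 300 mM, TCEP 1 mM, BSA, Tween 20); add 5X protein mix (GST-E1A, His-CtBP, 125 nM each); pin 23 nL compound; 2 h at 37 °C, dark; add 5X beads (50 ug/mL); 1 h; read.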
# gsp ag: agonists of gsp mutant (McCune-Albright syndrome); gsp mutant cells, cAMP HTRF, 30 min; control for the full effect not named in the record; Potency, µM (doses to about 76.9 µM), for the others: at the highest dose activation (cAMP increase), hits mostly activators; hit rate 0.13% among 340,000; active = well fitted activation curve with a large enough effect; inconclusive = small, poorly fitted or top-dose-only effect, or another doubt; inactive = no such curve, though single readings can be large or run the other way; cell line not stated here;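 note: phosphodiesterase inhibitor Ro 20-1724 added with compounds to block cAMP breakdown; potency is the fitted concentration of half-maximal effect; nearly all actives have a fitted effect of over 60% in size; about a fifth of the inactives were tested at one dose only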
#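 Cells in DMEM/10% FBS with G418 were pretreated with compounds in DMSO plus […] (300 uM stock) for 30 min at 37C. cAMP was measured by HTRF (cAMP-d2 plus anti-cAMP antibody-K) after 30 min at room temperature.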
# Starred values were filed as active, the others as inactive; ? = inconclusive; / = no result given; [ ] = remark or other dose.
D2 potentiator	Six1-Eya2 blk	D2 ag	gsp antagonist	CtBP-E1A inh	gsp ag	canonical_smiles
7	14	1.3	8%	-4	8%	COCCNC(=O)C(=O)NCCN1CCOCC1
-13	10	0.8	-2%	3	-10%	COC(=O)[C@H](C)NC(=O)Nc1ccc(OC)c(OC)c1
3	21	1.1	8%	30	-33%[15.4 µM]	Nc1nc(SCC(=O)Nc2ncc(C(F)(F)F)cc2Cl)n[nH]1
14	4	2.1	-12%	8	-10%	CC1CN(C(=O)/C=C/c2cccc([N+](=O)[O-])c2)CC(C)O1 (stereo not drawn)
0	-3	0.7	13%	-2	0%	CCOc1ccc(NC(=O)CN(C)C(=O)C2CSC3(C)CCC(=O)N23)cc1OCC (stereo not drawn)
-15	-8	-1.8	29%	-7	-17%	CCCn1c2ccc(F)cc2c2nnc(SCCN3CCOCC3)nc21
-34	3	-5.0	0%	-1	8%	CC(C)n1c(O)c(N=NC(=O)CNC(=O)c2cccnc2)c2ccccc21
1	1	-3.4	-3%	?	3%[15.4 µM]	Cc1ccccc1C(=O)OC1OC(=O)C(Cl)=C1Nc1ccc(C(=O)O)cc1 (stereo not drawn)
3	-2	-1.4	-17%	4	-5%	CCOC(=O)N1CCN(C(=O)/C=C/c2c(C)nn(-c3ccc(F)cc3)c2Cl)CC1
-9	2	-3.7	-2%	-2	/	C[C@H](CO)N1C[C@H](C)[C@@H](CN(C)CC2CC2)Oc2c(NC(=O)C3CC3)cccc2C1=O
-15	-18	-3.7	0%	-20	-18%	C#Cc1ccc(CN2CCN(CCc3ccccc3)C(CCO)C2)cc1 (stereo not drawn)
-10	-2	-4.2	-27%	?	23%	Cc1cc(NS(=O)(=O)c2ccc(NC(=O)COc3ccc(Br)cc3)cc2)nc(C)n1
-4	?	1.3	-23%	-13	1%[15.4 µM]	Cc1ccccc1NC(=O)C(=Cc1ccc(C(=O)O)cc1)C(=O)Nc1ccccc1C
6	-1	-6.0	-9%	-1	-7%	COC(=O)c1sc2nc(CN3CCOCC3)nc(N3CCOCC3)c2c1C
-8	13	-8.1	10%	12	-18%	CC(C)[C@H](NC(=O)[C@@H]1Cc2ccccc2CN1C(=O)OC(C)(C)C)C(=O)NCC1CCCO1 (stereo partly drawn)
-1	-6	14	/	0	/	CN(C(=O)CN1CCN(c2cc(-c3ccc(OCc4ccccc4)cc3)ncn2)CC1)c1ccccc1
-6	-1	0.5	10%	3	12%	CCOC(=O)CCP(=O)(O)C(O)(c1ccccc1)c1ccccc1
-7	2	-0.3	6%	-2	0%[15.4 µM]	COc1ccc(S(N)(=O)=O)cc1C(=O)NNC(=O)C1COc2ccccc2O1 (stereo not drawn)
15	-11	0.9	-13%	-5	-5%	Cc1[nH]c2ccccc2c1C(=O)C(=O)N1c2ccccc2CC1C (stereo not drawn)
2	-2	-4.5	1%	8	-33%[inhibitor]	CC(=O)Cn1ncc(N(C)Cc2ccccc2)c(Cl)c1=O
0	-1	-2.5	/	-9	/	CC1(C(=O)NS(=O)(=O)C2CC2)CCCN(C(=O)CSc2ccccc2)C1 (stereo not drawn)
-8	-9	1.6	0%	1	-6%[15.4 µM]	Cn1nnc(NC(=S)NC(=O)/C=C/c2ccco2)n1
-2	-2	-0.5	11%	4	29%	CCOc1ncccc1C(=O)OCC(=O)NCCc1ccc(S(N)(=O)=O)cc1
20	2	0.5	21%	4	?	Cc1ccc2nc(SCC(=O)NC3CCCC3)nc(=O)n2c1
-6	-15	-3.4	6%	2	?	O=c1oc2ccccc2c(N2CCCC2)c1[N+](=O)[O-]
16	3	7.3	-2%	-1	-7%[15.4 µM]	CC(C)CC(=O)Nc1nnc(SCC(=O)Nc2ccc3c(c2)OCO3)s1
-9	-1	-8.7	-4%	1	1%	CC(=O)c1ccc(OC(=O)c2ccc(Br)o2)cc1
14	-1	-6.3	-20%	10	-3%	CC1(C)C(=O)OC(c2cccs2)C2(CCCCC2)C1=O (stereo not drawn)
-13	0	-1.0	16%	-5	/	c1ccc([C@H]2CNCCN2CCc2cccc3ccccc23)cc1
0	0	-2.2	8%	0	9%[15.4 µM]	COc1ccc(S(=O)(=O)NC(C(=O)NCCc2ccccn2)C(C)C)cc1 (stereo not drawn)
10	5	9.8	9%	5	-19%[15.4 µM]	O=C(COC(=O)[C@@H]1CCCN1C(=O)c1cccs1)Nc1ccc(F)cc1[N+](=O)[O-]
?	-3	-4.8	11%	/	-5%	Nc1cc2ccncc2c2ccccc12
-9	3	-2.8	-9%	-16	?	CCN(CC)C(=O)Cn1cc(C(=O)C(=O)N2CCN(Cc3ccccc3)CC2)c2ccccc21
-1	3	0.0	2%	9	6%[15.4 µM]	CC(NCCS(=O)(=O)c1ccc(Cl)cc1)c1cccc(Cl)c1 (stereo not drawn)
-5	26	-8.1	-2%	0	-16%[15.4 µM]	Cc1cc(Cl)ccc1OCC(=O)OC(C)C(=O)N(C)C (stereo not drawn)
/	2	-5.3	-6%	-1	/	O=C(C[C@@H]1C/C=C\C[C@@H](Cc2ccc(F)cc2)C(=O)OC[C@H]2CCCN2C1=O)N[C@H](CO)Cc1ccccc1
-5	-10	2.5	-9%	-12	-47%[inhibitor]	O=C1/C(=C\c2cccs2)SC(=S)N1C1CCS(=O)(=O)C1 (stereo not drawn)
7	-20	-3.8	14%	0	-23%	COC(=O)C1=CN(Cc2ccc(OC)c(OC)c2)C=C(C(=O)OC)C1c1ccc(O)cc1
-1	-1	0.8	-6%	3	10%	Cc1ccc(NC(=O)COC(=O)Cn2c(C)csc2=O)cc1C
4	0	-6.2	-2%	5	/	Cc1cc(=O)[nH]c(=S)[nH]1
-7	-10	-1.5	-5%	-1	15%	Cc1ccc(-c2ccc(CCC(=O)O)n2C(C)C)cc1
-39	3	1.2	6%	2	-30%	CC(=O)Nc1ccc(NC(=O)CN2CCN(c3cccc(C(F)(F)F)c3)CC2)cc1
-3	7	-4.5	10%	-6	4%[15.4 µM]	CN(Cc1nccs1)C(=O)c1ccc(OC2CCN(Cc3ccccn3)CC2)cc1
-10	6	-4.2	1%	3	-30%[inhibitor]	Cc1cc(NC(=O)c2cc(C3CC3)on2)n(-c2ccccc2)n1
-2	-10	-2.7	/	-2	/	CC(=O)NCCNc1nc2cc(-c3cscc3C)sc2c(=O)n1C
1	-8	-3.9	6%	4	25%	CC1CCc2nc3ccc(S(=O)(=O)N4CCC(C(=O)O)CC4)cc3c(C(=O)O)c2C1 (stereo not drawn)
-3	1	-0.8	5%	0	-32%[inhibitor]	CCN1C(=O)CC(NCc2ccc3c(c2)OCO3)C1=O (stereo not drawn)
-19	0	-3.7	-10%	2	-8%	COC(=O)C1CCN(S(=O)(=O)c2ccc(NC(C)=O)cc2)CC1
-3	0	-3.2	18%	-1	?	COc1ccc(C(=O)CSc2nc(N)nc(SC)c2C#N)cc1
-2	-1	-3.3	3%	6	18%	O=C(Oc1ccccc1C(=O)N1CCOCC1)c1ccc(Br)cc1
0	4	-3.7	7%	0	-32%[inhibitor]	CC12CN3CC(C)(CN(C1)C3c1ccc(Cl)cc1Cl)C2=O (stereo not drawn)
-13	-13	14	/	-10	/	COc1cc(OC)cc(OC2(C)CCN(Cc3ccc(OC(C)C)cc3)C2)c1 (stereo not drawn)
-4	6	9.0	0%	20	21%[15.4 µM]	COc1cc(NC(=O)c2ccc([N+](=O)[O-])cc2)ccc1NC(=O)C(C)C
-7	4	-6.5	-11%	/	20%	Cn1nc(C(=O)NCCCN2CCCCC2)c2c1-c1ccccc1S(=O)(=O)C2
-13	-7	-0.8	16%	-2	15%	O=C(OCCN1CCCCC1)c1ccccc1Br
-1	3	-1.7	9%	5	0%	CC(C)C[C@H](NS(=O)(=O)c1ccc(Br)cc1)C(=O)O
-5	3	1.9	3%	-8	-5%	Cc1ccc(SCCC(=O)NCc2ccncc2)cc1
-6	-5	12	/	-7	/	NC(c1ccccc1)c1csc(NC(=O)Nc2ccc(OC(F)(F)F)cc2)n1 (stereo not drawn)
-11	-1	-2.2	-4%	-3	-14%	O=C(COc1ccc(Cl)cc1Cl)c1ccc[nH]1
3	2	5.7	13%	4	-5%	CCc1nc(N)c(C#N)c(-c2ccco2)c1C

# The listing continues:
D2 potentiator	Six1-Eya2 blk	D2 ag	gsp antagonist	CtBP-E1A inh	gsp ag	canonical_smiles
-14	3	0.3	8%	8	3%	Cc1cccc(OCC(=O)NNC(=O)Nc2cccc(Cl)c2)c1C
1	-3	0.6	-1%	3	-27%	Cc1cccc(-c2nc(C#N)c(NCc3ccco3)o2)c1
-6	12	-4.9	30%[activator]	/	-2%	C=C(C)COc1ccc2c(CC)cc(=O)oc2c1
2	10	0.2	-12%	10	-8%	CC(Oc1ccc(-c2ccccc2)c(F)c1)c1ccn(S(=O)(=O)c2ccc(F)cc2)n1 (stereo not drawn)
11	-4	-3.2	-24%	3	15%[15.4 µM]	Cc1onc(-c2c(F)cccc2Cl)c1C(=O)OCC(=O)NC(=O)NCC(C)C
9	-1	-1.6	7%	0	-54%[inhibitor]	O=C(CC(Nc1ccc(Cl)cc1)C(=O)O)c1ccccc1 (stereo not drawn)
-10	-2	1.5	-10%	-14	18%[15.4 µM]	CCC(C)c1ccc(S(=O)(=O)N2CCN3CCCC3C2)cc1 (stereo not drawn)
-20	-13	-2.1	4%	2	-2%[15.4 µM]	CCNC(=S)N(CCN(C)C)Cc1cc2cc(OCC)ccc2[nH]c1=O
-3	12	-3.1	-5%	2	22%	CCCC(=O)Nc1ccc(N2CCCCC2)cc1
-17	7	-3.0	-23%	18	2%	CC1(C(=O)N(Cc2ccccc2)Cc2ccccc2)CC1(Br)Br (stereo not drawn)
-12	4	-0.6	0%	2	0%	Cc1cc(C)cc(C(=O)N2CCC(C(N)=O)CC2)c1
-13	-11	-4.9	/	-8	-21%	CCOc1cccc(Cc2c[nH]c(=O)[nH]c2=O)c1
-12	5	-0.4	-6%	1	-4%	CCOc1ccccc1OCC(=O)Nc1ccc(Cl)cc1Cl
-1	2	-1.1	-3%	/	0%	CCCCNC(=O)C(=O)Nc1cc2c3c(c1)CCC(=O)N3CCC2
-12	3	0.8	2%	-13	5%	Cc1ccccc1S(=O)(=O)Cc1ccc(C(=O)NC(C)c2ccccc2)o1 (stereo not drawn)
-2	1	1.6	-8%	5	-62%[inhibitor]	Cc1cc(C)n2nc(-c3cccc(Br)c3)cc2n1

# Quoted at random: 3 compounds from above.
D2 potentiator	Six1-Eya2 blk	D2 ag	gsp antagonist	CtBP-E1A inh	gsp ag	canonical_smiles
-9	2	-3.7	-2%	-2	/	C[C@H](CO)N1C[C@H](C)[C@@H](CN(C)CC2CC2)Oc2c(NC(=O)C3CC3)cccc2C1=O
-1	-1	0.8	-6%	3	10%	Cc1ccc(NC(=O)COC(=O)Cn2c(C)csc2=O)cc1C
-17	7	-3.0	-23%	18	2%	CC1(C(=O)N(Cc2ccccc2)Cc2ccccc2)CC1(Br)Br (stereo not drawn)
